CSC inhib: cancer stem cell inhibition; hit rate 1.1% among 300,000; inhibition, % at 7.5 µM; cancer stem cell-like cells viability, luminescence; AID 2717;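 active means mean at 75% or more and at least half the replicates too; inconclusive means mean and replicates disagree; tested in HMLE shEcad cells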;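 further: 0% = median of negative and 100% = median of positive control wells; the first replicate is given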
HIV Env fusion: inhibitors of HIV Env-mediated cell fusion. hit rate 1.1% among 360,000. AID 651610. HeLa-JRFL Env/CEM21 cell fusion, luciferase. inhibition, % at 12.3 µM;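 active means mean replicate inhibition score of at least 50 and every replicate individually at or above 50; inconclusive means only one of the two criteria met; inactive means mean below 50 and not all replicates reaching 50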;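 further: 0% = plate neutral controls and 100% = maraviroc near 300 nM; one replicate is shown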
Yeast UUG start: yeast start codon fidelity modulation. activity score, % at 18.7 µM. S. cerevisiae UUG-firefly luciferase reporter, luminescence/redox ratio. hit rate 0.13% among 350,000;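 active means replicate mean at a twofold rise or more, about +100% in these data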;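 further: firefly luciferase made from a UUG start codon reports start codon fidelity; reporter light over untreated wells divided by growth signal over untreated wells; some hits fall short of that in this replicate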
MT1-MMP act inh: MT1-MMP (human) activation inhibition; hit rate 0.061% among 360,000; HT1080 RFP-PRO-GFP cells, GFP/RFP ratio fluorescence, overnight; percent of plate control window, DMSO zero; P50281; GFP/RFP ratio change, % at 20 µM;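 active means GFP/RFP ratio change of at least 30% with cell ATP level not reduced by more than half and red fluorescence within 50% of control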; further: strong numbers were not always called active
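Material: RFP-PRO-GFP reporter HT1080 cells. Dosing: single-point 20 µM compound, 1% DMSO. Controls: DMSO and RFP-L50D-GFP cell wells. Timing: cells overnight before dosing, compound overnight, 37 °C, 5% CO2. Measure: GFP/RFP fluorescence ratio.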
PABP FP inh: PABP-poly(A) binding inhibition | P11940 | PABP-poly(A) RNA binding, fluorescence polarization | inhibition, % at 35 µM | hit rate 1% among 290,000 | AID 2014;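 active means 50% or more with normal probe brightness, or confirmed in later tests; inconclusive means above 50% with abnormal brightness, or retests that disagree; inactive means below 50% or failed in later tests; about a fifth of its hits are not listed in these tables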;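 further: calls also rest on retests at 20 µM and on dose response follow-up; controls were probe without protein and protein plus probe with vehicle; some compounds called inactive have numbers as strong as hits; many hits fall short of the cut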
Rce1 inh: blocks yeast Ras-converting enzyme. yeast membranes, quenched prenylated peptide cleavage fluorescence. calls only. hit rate 0.27% among 290,000. AID 2563;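 active means fall in fluorescence gain of 50% or more versus controls, with final raw signal at or below 3038400; inconclusive means same 50% fall but final raw signal above 3038400; inactive means fall in fluorescence gain under 50%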;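 further: plate controls were neutral control wells for no effect and wells lacking membranes for full effect; tested at 10 µM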
Target sequence (Q03530 whole entry, looked up): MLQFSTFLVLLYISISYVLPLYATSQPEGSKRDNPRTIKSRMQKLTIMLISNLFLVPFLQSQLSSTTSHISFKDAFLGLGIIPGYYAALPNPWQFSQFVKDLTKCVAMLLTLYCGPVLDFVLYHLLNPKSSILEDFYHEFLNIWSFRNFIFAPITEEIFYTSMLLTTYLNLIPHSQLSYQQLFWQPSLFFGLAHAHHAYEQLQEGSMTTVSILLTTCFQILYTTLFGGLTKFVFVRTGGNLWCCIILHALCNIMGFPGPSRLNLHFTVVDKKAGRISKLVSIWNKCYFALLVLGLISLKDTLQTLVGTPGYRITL
eIF4H inh: inhibitors of RNA binding by human eIF4H. hit rate 0.94% among 290,000. eIF4H fluorescence polarization binding assay. inhibition, % at 35 µM. Q15056. AID 2012;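 active means 50% or more with normal probe brightness, or confirmed in later tests; inconclusive means above 50% with abnormal brightness, or retests that disagree; inactive means below 50% or failed in later tests; about a fifth of its hits are not listed in these tables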;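 further: calls also rest on retests at 20 µM and on dose response follow-up; 0% = protein and probe with vehicle and 100% = probe without protein; strong numbers were not always called active; many hits fall short of the cut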
eIF4H inh retest: recorded beside eIF4H inh, whose call it bears; inhibition, %; compound at 20 µM; confirmation average;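 mean of two retest wells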
PABP FP inh retest: recorded beside PABP FP inh, whose call it bears; inhibition, %; compound at 20 µM; confirmation repeats;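 mean of two retest wells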
MT1-MMP act inh RFP: second read-out of MT1-MMP act inh, no call of its own (marks repeat the call); RFP signal change, %; measured here: RFP expression control read;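 0 = vehicle wells; hits needed this value within 50% of zero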
The depositor's hits bear a star; i = inactive; ? = inconclusive; nt = no result given.

SMILES	CSC inhib	HIV Env fusion	Yeast UUG start	MT1-MMP act inh	MT1-MMP act inh RFP	PABP FP inh	Rce1 inh	eIF4H inh	others
Cn1c(CNC(=O)CNS(=O)(=O)c2ccc(Br)cc2)cc(=O)n(C)c1=O	-9.7	-1.8	-14.5	1.7	5.6	13.8	i	5.7
C/C(CC(=O)Nc1ccc(N(C)C)cc1)=N\NC(=O)c1ccc([N+](=O)[O-])cc1Cl	-3.3	4.8	0.8	1.2	-1.6	-7.7	i	-0.8
Brc1ccc(-c2ccccc2)cc1	-11.2	nt	-4.7	0.0	9.6	nt	nt	nt
CCCOC(=O)c1c(-c2ccc(C)cc2C)csc1NC(=O)C1C2CCC(O2)C1C(=O)O (stereo unspecified)	-15.5	-37.4	-23.3	-2.2	-1.5	11.3	i	-13.0
COc1ccccc1/C=C/C(=O)c1c2c(c(C)[nH]c1=O)CCCC2	nt	nt	-12.2	-33.0	-25.4	-6.0	i	-4.5
O=C1CCCCN1CCC(=O)N1CCCC(N2CCN(c3ccccc3)CC2)C1 (stereo unspecified)	-14.3	6.7	-3.0	-2.0	-0.8	nt	i	nt
Cn1ccc2c(-c3ccc(F)nc3)cc3c(c21)C1CCC3C1 (stereo unspecified)	nt	9.4	-15.9	5.9	4.1	nt	nt	nt
CCc1cc2c(=O)c(Oc3ccccc3F)c(C)oc2c(CN(C)C)c1O	-5.9	-21.3	20.4	-0.1	4.9	-4.4	?	-7.4
COc1ccc(/C=N/OCC(=O)Nc2nc3ccccc3s2)cc1	nt	-14.8	-17.7	2.7	3.9	4.8	i	-1.7
Cc1ccc(-c2nnc(SCC(=O)N/N=C/c3ccc(C(=O)O)cc3)n2C2CCCCC2)cc1	-6.3	-5.8	-19.7	-5.6	0.9	-1.7	i	-15.3
CN(CC(=O)Nc1cccc(F)c1)C(=O)C1CC(=O)N(Cc2ccco2)C1 (stereo unspecified)	1.1	2.6	nt	1.5	-1.5	nt	i	nt
Cc1occc1C(=O)Nc1nnc(C(F)(F)F)s1	2.3	-19.5	-17.2	-1.3	-4.9	0.9	i	-8.0
O=c1c2ccccc2nc2n1C(CBr)CN2 (stereo unspecified)	nt	1.3	-17.1	0.6	3.4	5.1	i	5.8
CCC(C)NC(=O)CSc1nnc(-c2ccc(Cl)cc2)n1N (stereo unspecified)	-18.0	7.0	nt	0.2	3.2	-5.2	i	11.3
CCn1cc(SCC(=O)Nc2cc(C)on2)c2ccccc21	-8.7	10.9	-8.5	1.5	0.4	-6.9	i	2.0
COc1ccc(OC)c(CNC(=O)C2CCCN(C(=O)N(C)C)C2)c1 (stereo unspecified)	12.3	nt	-15.0	4.8	5.5	-6.8	i	3.4
Nc1nc(CN2CCCCCC2)nc(Nc2ccccc2)n1	1.7	-13.8	-18.1	2.2	3.0	28.4	i	2.8
NS(=O)(=O)c1ccc2nc(NC(=O)CS(=O)(=O)c3ccc(F)cc3)sc2c1	-2.8	-2.4	-14.5	1.5	4.5	1.1	i	-3.0
COc1cccc(CNS(=O)(=O)c2c(C)[nH]c(C)c2C(=O)N2CCCC2)c1	-9.8	0.7	2.3	-1.8	3.9	7.6	i	-2.0
O=C(CN1C(=O)CSc2ccc(S(=O)(=O)N3CCOCC3)cc21)NCc1c(F)cccc1Cl	nt	15.6	12.6	-1.7	1.0	nt	nt	nt
c1ccc(-c2nnc(N3CCN(c4ccccc4)CC3)nc2-c2ccccc2)cc1	50.3	6.9	-12.2	1.5	-1.3	-2.6	i	-4.1
CN(C)CCSc1nc(-c2ccccc2)nc2c1CCC2	-3.7	-13.3	-17.6	-1.8	0.0	5.6	i	4.8
CN(C)C(=O)CN1C(=O)NC2(CCCc3ccccc32)C1=O (stereo unspecified)	2.3	-0.3	-15.9	-3.8	-1.6	-1.5	i	-0.5
Cc1nnc(NC(=O)c2ccc(S(=O)(=O)N3CC(C)OC(C)C3)cc2)o1 (stereo unspecified)	2.6	-4.9	-19.8	-5.1	2.1	-3.1	i	2.0
CCOC(=O)C1(C)CCN1C(=O)c1ccc(C(F)(F)F)cc1 (stereo unspecified)	nt	11.5	-4.0	-0.9	1.0	nt	nt	nt

(list continues)
SMILES	CSC inhib	HIV Env fusion	Yeast UUG start	MT1-MMP act inh	MT1-MMP act inh RFP	PABP FP inh	Rce1 inh	eIF4H inh	others
CCOC(=O)c1nnc(-c2ccc(C)cc2)nc1Oc1ccc(Cl)cc1Cl	5.8	nt	-11.5	-1.7	0.1	-4.6	i	4.4
O=C(CCC1CCCNC1)c1ccccc1 (stereo unspecified)	-11.1	nt	nt	nt	nt	-5.9	i	-0.8
Cc1cc(C)c[n+](-c2nc3ccccc3nc2[N-]S(=O)(=O)c2ccc(Br)s2)c1	-12.0	29.2	-21.6	-64.0	1.9	71.9	i	130.1	eIF4H inh retest=-6.3;PABP FP inh retest=30.2
CCN(CC)S(=O)(=O)c1ccc(N=NC2=C(O)CCCC2=O)cc1	0.1	2.2	-14.1	-5.6	4.7	-1.4	nt	9.7
CNS(=O)(=O)c1cccc(C(=O)Nc2cccc(Cl)c2)c1	1.3	-59.5	-17.5	5.1	-3.2	0.1	i	-6.8
COc1ccc(/C=C/C(=O)NNC(=O)C(C)Oc2ccccc2F)cc1OC (stereo unspecified)	-13.0	-16.7	-0.2	5.0	1.1	nt	nt	nt
O=C(Nc1ccccc1)O[C@@H]1C[C@H]2CCC(=O)N3CC[C@@H](C1)[C@@H]23	-5.6	nt	nt	nt	nt	-7.8	i	-6.8
CS(=O)(=O)c1cnc(-c2cccnc2)nc1N	-9.1	-4.6	nt	-0.9	2.3	-5.0	i	-6.1
CC12CCC(C(=O)Nc3cccc(NC(=O)C45CCC(C)(C(=O)O4)C5(C)C)n3)(OC1=O)C2(C)C	5.6	nt	-11.7	2.3	-1.1	-5.0	i	-6.1
O=S(=O)(c1ccc2nc(N3CCN(c4ccccc4)CC3)ccc2c1)N1CCCCC1	-11.4	3.3	-6.9	0.4	0.8	2.4	i	9.0
O=C1C=C(c2cccs2)C[C@H](c2ccccc2)[C@H]1n1nnc([N+](=O)[O-])n1	149.3*	nt	nt	-0.6	-16.4	-12.9	i	-1.7
Cc1ccccc1NC(=O)N1CCCC1C(=O)NCc1cccs1 (stereo unspecified)	-14.1	nt	4.8	0.7	1.6	1.4	i	2.6
Nc1cccc(-c2cn(-c3cc4cc(C#CC5(O)CCCCC5)ccc4oc3=O)nn2)c1	-6.1	11.1	2.7	-1.4	2.3	nt	nt	nt
CN1CCN(C(=O)c2ccc(N(Cc3ccccc3Cl)S(C)(=O)=O)cc2)CC1	nt	nt	-20.3	-1.7	16.2	-0.5	i	2.9
COCC(C)NCc1ccccc1C (stereo unspecified)	-0.4	nt	1.3	-1.5	0.8	5.7	i	-4.5
CN(C)c1ccc(CNC2CC(C)(C)NC(C)(C)C2)cc1	11.9	-77.5	-6.0	1.9	0.9	5.4	i	-4.5
COc1ccc(C2CCCN2C(=O)Nc2ccc(F)cc2)cc1OC (stereo unspecified)	-4.6	-8.1	-10.3	2.1	-1.2	12.8	i	-4.0
Cc1ccc(NC(=O)C(C)[n+]2ccccc2)cc1[N+](=O)[O-] (stereo unspecified)	-0.7	-27.3	-6.8	-1.3	-1.0	-7.0	i	-5.0
COc1ccc(Cn2c(-c3ccco3)nc3c(c(=O)c4ccccc4n3C)c2=O)cc1	nt	-7.4	nt	-0.1	-10.4	-2.2	i	22.4
O=C(NCc1cccnc1)c1ccc(COc2ccc(Cl)cc2)cc1	29.3	42.9	4.9	-1.2	-21.7	-14.0	nt	-6.7
CC12CCC(=O)N1C(C(=O)OCC(=O)Nc1ccc(C(F)(F)F)cc1)CS2 (stereo unspecified)	nt	-3.7	-16.0	0.9	-2.0	nt	nt	nt
O=C1OC(NCc2cccnc2)(c2ccc(Cl)cc2)c2ccccc21 (stereo unspecified)	5.2	0.5	nt	-2.0	2.1	-4.7	i	-9.1
N#Cc1c(-c2ccccc2)ccn(Cc2cccc(Cl)c2)c1=O	-6.1	nt	0.0	-2.5	-6.1	9.7	i	-5.0
O=C(NCc1ccco1)c1cc(-c2ccncc2)nc2ccccc12	6.6	-30.5	0.7	1.8	-3.8	0.7	i	-4.1
C=CCn1c(C)cc(C(=O)COC(=O)/C=C/c2c(C)nn(C3CCS(=O)(=O)C3)c2Cl)c1C (stereo unspecified)	-7.1	-0.9	0.6	7.9	-6.9	nt	i	nt

A draw from above in order of molecular weight, largest number first.
SMILES	CSC inhib	HIV Env fusion	Yeast UUG start	MT1-MMP act inh	MT1-MMP act inh RFP	PABP FP inh	Rce1 inh	eIF4H inh	others
C=CCn1c(C)cc(C(=O)COC(=O)/C=C/c2c(C)nn(C3CCS(=O)(=O)C3)c2Cl)c1C (stereo unspecified)	-7.1	-0.9	0.6	7.9	-6.9	nt	i	nt
COc1ccc(Cn2c(-c3ccco3)nc3c(c(=O)c4ccccc4n3C)c2=O)cc1	nt	-7.4	nt	-0.1	-10.4	-2.2	i	22.4
O=C(NCc1cccnc1)c1ccc(COc2ccc(Cl)cc2)cc1	29.3	42.9	4.9	-1.2	-21.7	-14.0	nt	-6.7
COc1ccc(C2CCCN2C(=O)Nc2ccc(F)cc2)cc1OC (stereo unspecified)	-4.6	-8.1	-10.3	2.1	-1.2	12.8	i	-4.0
CNS(=O)(=O)c1cccc(C(=O)Nc2cccc(Cl)c2)c1	1.3	-59.5	-17.5	5.1	-3.2	0.1	i	-6.8
N#Cc1c(-c2ccccc2)ccn(Cc2cccc(Cl)c2)c1=O	-6.1	nt	0.0	-2.5	-6.1	9.7	i	-5.0
CS(=O)(=O)c1cnc(-c2cccnc2)nc1N	-9.1	-4.6	nt	-0.9	2.3	-5.0	i	-6.1

Other entries follow.
SMILES	CSC inhib	HIV Env fusion	Yeast UUG start	MT1-MMP act inh	MT1-MMP act inh RFP	PABP FP inh	Rce1 inh	eIF4H inh	others
CS(=O)(=O)c1ccc(Cl)c(NC(=O)Cc2ccccc2F)c1	-15.5	-6.2	-0.7	5.1	4.5	0.6	i	5.6
CC1(C)N=C(N)NC(Nc2ccc(Cl)cc2)=N1	nt	4.0	-16.3	-1.0	2.3	nt	nt	nt
COc1cc(C(=O)Sc2ccc(Cl)cc2)cc(OC)c1OC	18.8	nt	-20.4	-17.9	-18.1	-3.2	i	-4.2
Cc1cccc(N=C2NC(=O)CS2)c1C	-12.5	nt	nt	3.8	4.0	20.2	i	-10.5
CC(=O)Nc1ccc(/C(C)=N/Nc2nc(N3CCOCC3)nc(N3CCOCC3)n2)cc1	-10.2	7.9	nt	1.6	-2.6	2.7	i	-2.2
CN(N=Nc1cccc([N+](=O)[O-])c1)c1ccccc1	18.6	-87.6	-22.4	0.6	-2.6	6.2	i	-1.3
CCc1ccc[n+](-c2[nH]c(=O)sc2/C=N/N=C(\[O-])c2cccnc2)c1	1.2	-1.4	-14.2	4.8	6.1	32.5	i	28.0
O=C(N/N=C/c1cccs1)c1ccc2nc[nH]c2c1	-5.9	-10.9	nt	0.5	-2.1	-6.4	i	1.1
O=C(NC1CCCCC1)C(c1ccccc1)N(Cc1ccc2c(c1)OCO2)C(=O)c1cnsn1 (stereo unspecified)	5.8	10.9	3.3	-15.1	-11.2	0.4	i	-4.9

Screens as filed in PubChem BioAssay.
